High-throughput results (PubChem)
KCNQ2 block: KCNQ2 potassium channel inhibitors, primary screen, cell-based, CHO-K1, FluxOR thallium flux, B-score (AID 2156); 20 min; hits give low values; only compounds with negative scores are shown here; some inactives read as strong as hits; 310,000 tested, 1.1% active; B-score at 10 µM;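 active = fluorescence ratio B-score at most minus 3 library SDs, with starting brightness B-score within 2 library SDs, cut at about -5.5 in these data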
Target sequence (O88943 whole entry, looked up): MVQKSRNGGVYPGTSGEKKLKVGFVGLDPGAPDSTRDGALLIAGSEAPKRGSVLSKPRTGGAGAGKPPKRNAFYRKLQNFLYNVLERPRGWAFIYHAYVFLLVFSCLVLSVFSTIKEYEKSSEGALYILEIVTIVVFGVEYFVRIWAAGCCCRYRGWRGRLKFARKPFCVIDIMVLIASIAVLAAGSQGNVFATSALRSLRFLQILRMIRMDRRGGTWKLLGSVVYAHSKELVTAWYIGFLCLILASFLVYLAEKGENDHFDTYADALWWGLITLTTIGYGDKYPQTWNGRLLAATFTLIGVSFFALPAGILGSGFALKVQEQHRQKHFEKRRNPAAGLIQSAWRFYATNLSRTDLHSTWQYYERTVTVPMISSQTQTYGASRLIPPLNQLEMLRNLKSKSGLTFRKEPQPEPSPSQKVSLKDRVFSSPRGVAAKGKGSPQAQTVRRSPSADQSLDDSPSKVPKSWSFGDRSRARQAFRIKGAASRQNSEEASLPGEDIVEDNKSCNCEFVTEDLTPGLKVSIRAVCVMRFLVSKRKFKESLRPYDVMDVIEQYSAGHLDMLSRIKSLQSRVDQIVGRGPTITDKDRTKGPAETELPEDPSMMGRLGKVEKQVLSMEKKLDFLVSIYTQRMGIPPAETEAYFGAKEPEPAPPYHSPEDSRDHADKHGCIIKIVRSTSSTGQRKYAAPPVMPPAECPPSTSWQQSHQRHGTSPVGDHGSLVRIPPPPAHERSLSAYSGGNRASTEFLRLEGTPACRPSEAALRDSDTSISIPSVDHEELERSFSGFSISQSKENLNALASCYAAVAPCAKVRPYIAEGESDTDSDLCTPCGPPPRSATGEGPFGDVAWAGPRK
KCNQ2 block baseline: also measured in KCNQ2 block; calls as there; B-score; measured here: initial fluorescence intensity artifact check;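 brightness before thallium and not channel activity; 0 = typical well and far values either way flag optical interference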
The depositor's hits bear a star; i = inactive.

SMILES	KCNQ2 block	KCNQ2 block baseline
O=C(OCC(=O)c1cccs1)c1ccc([N+](=O)[O-])o1	i	2
CCOC(=O)CNC(=O)C1COc2ccccc2O1 (stereo unspecified)	i	-0.44
Cc1cc(NC(=O)Cn2ccsc2=N)c([N+](=O)[O-])cc1C	i	-0.98
CCCn1c(CNS(=O)(=O)c2ccc(C)cc2)nc2ccccc21	i	-2.3
CCOC(=O)c1sc2nc(C)nc(N3CCN(c4ncccn4)CC3)c2c1C	i	1.8
COc1ccc2cc(C#N)c(NC(C)C)nc2c1	i	0.45
Cc1ccc(-n2c(Cc3cccs3)nnc2SCC(=O)Nc2ccc(S(N)(=O)=O)cc2)cc1	i	0.49
CCOc1ccccc1NC(=O)Cn1c(=O)c(OCC)nc2cnccc21	i	0.41
COc1ccc(-c2nc(Cn3c(SCc4ccc(C)cc4)nc4ccncc43)c(C)o2)cc1OC	i	-0.61
O=C1CCCCCN1Sc1ccccc1	i	2.1
CCOc1ccccc1CNCC1CCCO1 (stereo unspecified)	i	0.3
CCN(CC)C(=O)C1CCCN(C(=O)CCn2nnnc2CN2CCOCC2)C1 (stereo unspecified)	i	0.51
CCOC(=O)c1c(-c2ccccc2)nc2c(C)cccn12	i	0.96
O=C(COC(=O)c1cccc(S(=O)(=O)N2CCN(c3ccccc3)CC2)c1)NCc1ccco1	i	0.78
CCOC(=O)N1CCN(S(=O)(=O)c2ccc(OCC)c3ccccc23)CC1	i	0.4

Structures listed so far containing an aryl thioether with sulfur outside any ring, in the order listed:
SMILES	KCNQ2 block	KCNQ2 block baseline
Cc1ccc(-n2c(Cc3cccs3)nnc2SCC(=O)Nc2ccc(S(N)(=O)=O)cc2)cc1	i	0.49
COc1ccc(-c2nc(Cn3c(SCc4ccc(C)cc4)nc4ccncc43)c(C)o2)cc1OC	i	-0.61

Reformatted with values under each structure: entries from further up
Second line of a record – KCNQ2 block | KCNQ2 block baseline
CCOc1ccccc1CNCC1CCCO1 (stereo unspecified)
→ i | 0.3
CCN(CC)C(=O)C1CCCN(C(=O)CCn2nnnc2CN2CCOCC2)C1 (stereo unspecified)
→ i | 0.51

New compounds follow:
SMILES	KCNQ2 block	KCNQ2 block baseline
COc1ccc(C2NC(=S)NC(C)=C2C(=O)Nc2ccccn2)cc1 (stereo unspecified)	i	0.67
Cc1ccnc2nc(C(=O)Nc3cc(Cl)ccc3N3CCOCC3)nn12	i	0.6
O=C(CCCOc1ccc(Cl)cc1Cl)N1CCc2ccccc2C1	i	-1.5
O=C(O)CN1C(=O)C2C3CC(C2C1=O)C1C(c2ccccc2)c2sc(=O)[nH]c2SC31 (stereo unspecified)	i	0.06
O=C(NC1CCCCC1)N1CCc2ccccc21	i	0.7
CCc1nnc(NS(=O)(=O)c2ccc(NCc3ccccc3O)cc2)s1	i	0.02
Cc1ccc(NC(=O)NNC(=O)C2CCN(Cc3ccc(F)cc3Cl)CC2)cc1	i	0.5
Cc1nn(CCCC(=O)NCCc2ccccc2)c(C)c1[N+](=O)[O-]	i	-0.09
Cc1cccc(CN2CCN(C(=O)CCc3nnc(C4CCCCC4)o3)CC2)c1	i	-0.56
COc1ccc(-c2nc3ncccn3c2Nc2ccccc2)cc1	i	0.03
Clc1ccccc1OCc1nnc(-c2ccccc2Br)o1	i	-0.32
CCCN(Cc1cc2cc(C)ccc2[nH]c1=O)S(C)(=O)=O	i	1.2
O=C(Cn1cnc2ccccc21)N1CCN(S(=O)(=O)c2ccccc2)CC1	i	-0.02
Cc1ccc(S(=O)(=O)NCC(=O)OCc2ccccc2Br)cc1	i	0.88
COc1ccc(CCNC(=O)CN2CCN(Cc3ccc(F)cc3)C2=O)cc1OC	i	0.13
Cc1[nH]c(C)c(S(=O)(=O)NCc2ccc(OC(C)C)cc2)c1C(=O)N1CCCC1	-5.7*	-0.31*
C=CCC(=O)NC1CC(C)(C)Cc2c1cnn2-c1ccccc1C (stereo unspecified)	i	0.84
COc1cc(OC)cc(C2=NC3(CCC(C)CC3)NC2=S)c1 (stereo unspecified)	i	-0.93
Nc1ccc(-c2sc(N)nc2-c2ccccc2)cc1	i	3.1
CCN(CC)c1nc2cc(OC)ccc2cc1C#N	i	-0.45
N#Cc1cccc(NC(=O)CSc2ccc3c4c(cccc24)C(=O)c2ccccc2-3)c1	i	7
CC(NC(=O)COC(=O)[C@@H]1CCCN1S(=O)(=O)c1ccccc1F)C12CC3CC(CC(C3)C1)C2 (stereo partly specified)	i	-0.99
O=C(NCC1CCCO1)c1ccc(NS(=O)(=O)c2ccccc2)cc1 (stereo unspecified)	i	0.02
C#CCOCCOCCOCCNc1nc(N2CCN(C(=O)C([C@@H](C)CC)n3cc(C(N)Cc4ccc(O)cc4)nn3)CC2)nc(N2CCN(C(=O)[C@H](CCC(=O)O)n3cc(C(N)CC(C)C)nn3)CC2)n1 (stereo partly specified)	i	-0.31
Cc1cc(CN2C(=O)c3ccccc3C2=O)cc(N2CCOCC2)c1	i	0.65
CC(C)NC(=O)CSc1nnc(-c2ccc(F)cc2)c2ccccc12	i	0.05
COc1ccc(/C=N/NC(=O)Cc2n[nH]c(=O)[nH]c2=O)cc1	i	-0.03
O=C(COC(=O)C1(c2cccc(F)c2)CCCC1)NCc1cccs1	i	-2.4
Cc1ccc(C(=O)N2C3=C(CCCC3)C(=O)NC23CCCCC3)cc1	i	0.09
COC(=O)c1ccccc1NCC(=O)c1ccc(OC)cc1	i	-2.8
CC(O)c1nc2ccccc2n1CC(=O)N1CCN(c2ccccc2)CC1 (stereo unspecified)	i	0.74
C=CCNC(=O)C1CCN(S(=O)(=O)CC)CC1	i	1.1
COc1ccccc1Oc1ccc(S(=O)(=O)N2CCN(C)CC2)cc1	i	1
Cc1nn(Cc2ccccc2)c(C)c1C(=O)NCCN1C(=O)S/C(=C\c2ccccc2)C1=O	i	0.17
O=C(N/N=C/c1ccc(O)c(Br)c1)c1cc2c(ccc3ccccc32)o1	i	-0.4
COCCn1nnnc1C(c1ccccc1)N1CCN(Cc2ccc3c(c2)OCO3)CC1 (stereo unspecified)	i	-1.4
CCc1ccc2[nH]c(O)c(N=NC3=NC(=O)CS3)c2c1	i	-1.6
Cc1cc(C)c(OCC(=O)OCC(=O)NC2CCCCCCC2)c(C)c1	i	0.28
O=C(CSc1ncn[nH]1)NC1CC2CCC1C2 (stereo unspecified)	i	-0.01
CC1(C)NC(C)(C)/C(=C\c2cccs2)C(=O)C1=O	i	0.15
COC(=O)[C@H](Cc1ccccc1)NC(=O)NCc1ccc(S(N)(=O)=O)cc1	i	-1.2
NNC(=O)CNC(c1ccccc1)c1cc(Br)ccc1NC(=O)c1cccc(Cl)c1 (stereo unspecified)	i	-1.6
N/C(=N\OC(=O)COc1ccc([N+](=O)[O-])cc1)c1ccncc1	i	0.61
Cc1oc(-c2cc3c(cc2Cl)OCO3)nc1CN1CCCC(C(=O)N2CCOCC2)C1 (stereo unspecified)	i	0.3
Cc1c(OCC(=O)NC(Cc2ccc(Cl)cc2)C(=O)O)ccc2c3c(c(=O)oc12)CCCC3 (stereo unspecified)	i	-3

Taken from above:
Value of O=C(N/N=C/c1ccc(O)c(Br)c1)c1cc2c(ccc3ccccc32)o1 under KCNQ2 block baseline: -0.4
Value of Cc1cc(C)c(OCC(=O)OCC(=O)NC2CCCCCCC2)c(C)c1 under KCNQ2 block baseline: 0.28
Value of COCCn1nnnc1C(c1ccccc1)N1CCN(Cc2ccc3c(c2)OCO3)CC1 (stereo unspecified) under KCNQ2 block baseline: -1.4
Value of CC1(C)NC(C)(C)/C(=C\c2cccs2)C(=O)C1=O under KCNQ2 block baseline: 0.15
Value of COc1ccccc1Oc1ccc(S(=O)(=O)N2CCN(C)CC2)cc1 under KCNQ2 block baseline: 1
Value of Cc1oc(-c2cc3c(cc2Cl)OCO3)nc1CN1CCCC(C(=O)N2CCOCC2)C1 (stereo unspecified) under KCNQ2 block baseline: 0.3
Value of O=C(CSc1ncn[nH]1)NC1CC2CCC1C2 (stereo unspecified) under KCNQ2 block baseline: -0.01

Continuation.
SMILES	KCNQ2 block	KCNQ2 block baseline
CC(=O)N(CC(=O)O)c1ccccc1C(=O)O	i	0.16
O=[N+]([O-])c1ccc2nc(-c3ccc(Cl)cc3)n(OCc3ccccc3)c2c1	i	81
O=C(CC1C(=O)NCCN1Cc1cccc(Oc2ccccc2)c1)NCCc1cnccn1 (stereo unspecified)	i	0.03
CCOC(=O)c1c(NC(=O)CSc2nnc(-c3ccncc3)n2Cc2ccco2)sc(C)c1C	i	2.2
COc1ccc(C(=O)Nc2ccc(S(=O)(=O)N3CCOCC3)cc2)cc1OC	i	0.82
CC1(C)Oc2ccc3ccc(=O)oc3c2/C(=C/N)C1=O	i	-1.1
Cc1ccc(S(=O)(=O)NCCC(=O)NNC(=O)c2ccccc2O)cc1C	i	-1.2
CCCCCCc1cc2cc(-c3nnc(-c4ccccc4O)o3)c(=O)oc2cc1O	i	6
O=C(NCc1ccccc1Cl)C1CCCN(S(=O)(=O)c2cccc3nsnc23)C1 (stereo unspecified)	i	0.57
CC(OC(=O)c1ncc(Cl)c(Cl)c1Cl)C(=O)NC1(C#N)CCCCC1 (stereo unspecified)	i	0.44
CC(C)(C)NC(=O)CSc1nc2scc(-c3ccccc3)c2c(=O)[nH]1	i	0.62
O=C1O/C(=C/c2ccccc2)N=C1c1ccccc1	i	-2.1
C/C=C/C(=O)OCC(=O)Nc1cc(-c2cc(C)c(C)cc2C)nn1-c1ccccc1	i	-1
CN(CC(=O)Nc1ccccc1Cl)C(=O)c1ccccc1SCC(=O)N1CCCC1	i	0.02
COc1ccc(-c2cc(C(=O)Nc3ccc(C(N)=O)cc3)c3ccccc3n2)cc1OC	i	0.18
COc1ccc(COC(=O)C2=C(C)NC(=O)NC2c2cccc(Br)c2)cc1 (stereo unspecified)	i	-0.05
CC(C)CCC[C@@H](C)[C@H]1CC[C@H]2[C@@H]3C(=O)C=C4C[C@@H](O)CC[C@]4(C)[C@H]3CC[C@]12C	i	-0.35
O=C(c1c(Cl)cccc1Cl)N1CCN(c2ncccn2)CC1	i	-0.41
CCOC(=O)C(=Cc1ccc(Br)cc1)C(=O)OCC	i	2.9
CCOc1ccc(NC(=O)C(=S)NC2CCCCC2)cc1	i	0.4
COc1ccc(N(C)S(=O)(=O)c2cccc(C(=O)NCC(c3ccco3)N3CCCC3)c2)cc1 (stereo unspecified)	i	-0.62
CCOC(=O)C1(Cc2cccc(OC)c2)CCN(CCO)CC1	i	-0.64
Cc1onc(-c2c(F)cccc2Cl)c1C(N)=S	i	-1
CCN(CC)S(=O)(=O)c1cc(NC(=O)C(C)N2CCN(c3ccccn3)CC2)ccc1C (stereo unspecified)	i	2.1
Cc1cc(C)[n+](-c2ccc(Oc3ccccc3)c(S(=O)(=O)[O-])c2)[nH]1	i	1.2
C/C(=N/NC(=O)c1cccs1)c1c(C)[nH]n(-c2nc3ccccc3s2)c1=O	i	0.08
COC1OC(COC(=O)c2ccccc2)C(OC(=O)c2ccccc2)C1OC(=O)c1ccccc1 (stereo unspecified)	i	-1.8
OC(COc1ccc2cc(Br)ccc2c1)CN1CCCC1 (stereo unspecified)	i	-0.36
COc1ccc(C(=O)OCC(=O)Nc2ccc(F)cc2F)cc1OC	i	0.09
CNc1nc2c(c(=O)n(C)c(=O)n2C)n1Cc1ccccc1	i	-3

Molecules listed so far containing a cyano group (4):
SMILES	KCNQ2 block	KCNQ2 block baseline
COc1ccc2cc(C#N)c(NC(C)C)nc2c1	i	0.45
CCN(CC)c1nc2cc(OC)ccc2cc1C#N	i	-0.45
N#Cc1cccc(NC(=O)CSc2ccc3c4c(cccc24)C(=O)c2ccccc2-3)c1	i	7
CC(OC(=O)c1ncc(Cl)c(Cl)c1Cl)C(=O)NC1(C#N)CCCCC1 (stereo unspecified)	i	0.44

Further results follow:
SMILES	KCNQ2 block	KCNQ2 block baseline
CCCCn1c(N)c(N(CCC(C)C)C(=O)C2CC(=O)N(c3ccc(OC)cc3OC)C2)c(=O)[nH]c1=O (stereo unspecified)	i	-0.03
CC(=O)N1c2ccc(S(=O)(=O)N3CCC(C(=O)Nc4ccccn4)CC3)cc2CC1C (stereo unspecified)	i	-0.38
Cc1cccc(OCC(=O)Nc2ccc(NC(=O)c3ccco3)cc2)c1	i	-1.1
CCOC(=O)CCC(=O)N1CCNC(=O)C1	i	1.6
CCOC(=O)c1c(C)[nH]c(C)c1S(=O)(=O)NCCc1cccs1	i	-2.5
O=C(O)c1nn2cc(CCO)cnc2c1Cl	i	0.56
CS(=O)(=O)c1ccc(Cl)c(NC(=O)COC(=O)CNC(=O)c2ccccc2)c1	i	-0.42
O=C(CSc1ccc(F)cc1)N1CCN(S(=O)(=O)c2ccccc2)CC1	i	1
CC(Sc1nnc(-c2ccccc2)c(-c2ccccc2)n1)C(=O)Nc1ncc(Cl)cc1Cl (stereo unspecified)	i	-0.06
CC/C(=N\NC(=O)c1ccc2c(c1)OCO2)c1ccccc1	i	-0.44
Cc1ccc(C)c(OCc2cc(C(=O)N3CC[C@@H]4CCCC[C@H]4C3)no2)c1	-6.5*	1.2*
CC1=C(C(=O)OC2CCCC2)C(c2coc3ccccc3c2=O)C2=C(CC(C)(C)CC2=O)N1 (stereo unspecified)	i	-1.1
O=C(CSc1ccsc1[N+](=O)[O-])Nc1cc(F)ccc1F	i	2.9
O=C1C(Cl)=C(N2CCCCCC2)C(=O)N1c1ccccc1	i	-1.7
COc1ccccc1/C=C/C(=O)NC(=S)NCC1CCCO1 (stereo unspecified)	-7.1*	0.88*
Cc1cc(C(=O)COc2cc(F)ccc2[N+](=O)[O-])c(C)n1C1CC1	i	-0.42
COc1ccc(NC(=O)CNC(=O)C2CCCCC2)cc1	i	-0.37
CC1(C)CC(n2c(NCCO)nc3c(c2=O)C2(CCCC2)Cc2ccccc2-3)CCO1 (stereo unspecified)	i	-1.7
CCCc1nnc(SCC(=O)Nc2nccs2)o1	i	-0.25
Cc1cc(C)n(C(=O)CCC(=O)Nc2ccc(C)c(C)c2)n1	i	0.64
CC1(C)Nc2ccccc2N(Cc2ccc([N+](=O)[O-])cc2)C1=O	i	1.9
CCOC(=O)C1=C(Nc2ccccc2)CC(C)(O)C(C(=O)OCC)C1c1ccc(Br)cc1 (stereo unspecified)	i	0.7
CN(Cc1ccccc1)C(=O)COC(=O)c1ccccc1NS(=O)(=O)c1cccc(N)c1	i	0.34

A portion of the library; count on the stated rates, not on these rows.
